Vaccinia mCherry – qHTS for Stage-Specific Inhibitors of Vaccinia Orthopoxvirus: mCherry Reporter Primary qHTS | Potency, µM (highest dose often 36.5 µM), without a hit: at the top dose activity change, negative = inhibition, actives largely listed as inhibitors | 0.63% of 310,000 active | Vaccinia virus mCherry reporter infection, fluorescence; about a quarter of the inactives have no number; active = well fitted inhibition curve with a large enough effect; inconclusive = small, poorly fitted or top-dose-only effect; inactive = no such curve, though single readings can be large or run the other way; tested in A549 cells; also: nearly all actives have a fitted effect of over 35% in size; inactives centre near -10
Vaccinia Venus – qHTS for Stage-Specific Inhibitors of Vaccinia Orthopoxvirus: Venus Reporter Primary qHTS | Vaccinia virus Venus reporter expression, fluorescence | Potency, µM (series often up to 36.5 µM), inactives show at the highest dose activity change, negative = inhibition, actives largely listed as inhibitors | 0.46% of 330,000 active | AID 720580, 2013; active means well fitted inhibition curve with a large enough effect; inconclusive means small, poorly fitted or top-dose-only effect; inactive means no such curve, though single readings can be large or run the other way; tested in A549 cells; also: nearly all actives have a fitted effect of over 30% in size; inactives centre near -10
* hit, by the source's call; i = inactive; ? = inconclusive; / = not tested or not shown; & = joins results of further samples; [ ] = remark or other dose. % is scaled to controls: 0 for no effect and ±100 for the full control effect; potency is read from the fitted curve at half-maximal effect. Compounds as they come; any-hit rate near 0.82%.

nr	structure	Vaccinia Venus	Vaccinia mCherry
1	Cc1noc(C)c1C(=O)N1CCCC(C(=O)c2cccc(C(F)(F)F)c2)C1 (configuration not stated)	-7.3%	i
2	O=S(=O)(NCCSc1nnnn1-c1ccccc1)c1cccs1	?	/
3	COc1cc(C2Nc3c(F)cccc3C3C=CCC32)cc(Br)c1OC (configuration not stated)	-5.1%	-20.4%
4	C[C@@H]1CN([C@@H](C)CO)C(=O)c2cc(NC(=O)C3CC3)ccc2O[C@@H]1CN(C)Cc1ccc(Cl)c(Cl)c1	?	-28.8%
5	NNC(=O)Cc1cn(-c2ncc(C(F)(F)F)cc2Cl)c2ccccc12	17.3%	/
6	CC(C)c1nc2oc3c(NCC4CCCO4)ncnc3c2c2c1CCC2 (configuration not stated)	-17.2%	-16.7%
7	O=C(NCC(c1cccnc1)N1CCN(c2ccccc2)CC1)Oc1ccccc1 (configuration not stated)	-12.2%	i
8	COc1ccc(NC(=O)CSc2nc3nc(-c4cccs4)cc(C(F)(F)F)c3c(=O)[nH]2)c(OC)c1	-3.5%	i
9	CCc1nnc(NC(=O)CSc2nnc(CNc3cccc(C)c3)n2-c2ccccc2)s1	-0.8%	-15.4%
10	O=C(CCNC(=O)c1ccc(Cl)cc1)Nc1ccc(Cl)cc1F	-7.5%	-5.1%
11	O=[N+]([O-])c1cccc(N/N=C/c2ccc(N3CCOCC3)cc2)c1	-12.1%	?
12	Cc1ccc(-n2c(C)cc(C=C3C(=O)N(C)C(=O)N(C)C3=O)c2C)cc1	-11.0%	i
13	COc1ccc(-c2noc(COc3ccc4c(c3)OCO4)n2)cc1	-15.8%	i
14	COc1ccc2c(c1)cc1n2CCN2CCCN=C12	3.8%	-10.4%
15	COc1ccc(CCNC(=O)c2nc(-c3cccs3)no2)cc1OC	7.2%	-12.7%
16	COc1cccc(CNC(=O)Cc2csc(Nc3nc(=S)[nH]c4ccccc34)n2)c1	-5.2%	i
17	COc1cc(CC(C)N)c(OC)cc1I (configuration not stated)	-14.0%	-17.7%
18	COc1ccc(CN(C)C(=O)c2ccc(NC(=O)CC3SC(N4CCCC4)=NC3=O)cc2)c(OC)c1OC (configuration not stated)	-4.7%	-19.0%
19	CC(=O)c1ccc(NC(=O)CSc2cn(CC(=O)N3CCCCCC3)c3ccccc23)cc1	-16.5%	-17.0%
20	O=C(O)c1cccc(NC(=O)C2CC(=O)N(Cc3ccccc3)C2)c1 (configuration not stated)	1.7%	/
21	COc1cccc(CNc2nc3cc(-c4ccccc4)sc3c(=O)n2C)c1	-19.6%	i
22	NS(=O)(=O)c1cc(C(=O)OCC(=O)N2CCOCC2)ccc1Cl	11.1%	-20.1%
23	O=C(CCCSc1ccccc1)Nc1nc(-c2ccccn2)cs1	?	/
24	CCc1ccc(NC(=O)N(CCN(C)C)C(C)c2cccnc2)cc1 (configuration not stated)	-9.5%	i
25	Cc1cc(C)c(C)c(C(=O)C2OC(=O)C(C)(C)C(=O)C2(C)C)c1C (configuration not stated)	-5.9%	-8.2%
26	O=C(NCCc1ccccn1)C1CC12CCN(C(=O)c1ccc(F)cc1Cl)CC2 (configuration not stated)	1.6%	-12.1%
27	O=C(NCCc1ccc(Cl)cc1)c1ccc(CS(=O)Cc2cccc(Cl)c2)o1 (configuration not stated)	-15.0%	i
28	COC(=O)c1ccc(CSc2nc3ccc(S(N)(=O)=O)cc3[nH]2)cc1	-4.6%	-6.7%
29	CCCn1c(CC)nc([N+](=O)[O-])c1Sc1ncn[nH]1	?	-18.2%
30	CCOc1ccc(NS(=O)(=O)c2ccc3c(c2)CCN3C(C)=O)cc1	5.3%&-5.0%	-10.2%&-9.0%

Part of the list above, with values under each structure.
Every second line gives: Vaccinia Venus, Vaccinia mCherry
[28] COC(=O)c1ccc(CSc2nc3ccc(S(N)(=O)=O)cc3[nH]2)cc1
    -4.6%, -6.7%
[22] NS(=O)(=O)c1cc(C(=O)OCC(=O)N2CCOCC2)ccc1Cl
    11.1%, -20.1%

Next section.
nr	structure	Vaccinia Venus	Vaccinia mCherry
31	O=C(CCSCc1ccccc1Cl)NCc1ccco1	-5.2%	-0.5%
32	COC(CNC(=O)CSCc1nc(-c2ccc(SC)cc2)oc1C)OC	-15.5%	-0.9%
33	COc1ccc([C@@H]2CC=C(C(=O)O)CN2S(=O)(=O)c2ccc(C)cc2)cc1OC	-16.0%	-3.4%
34	CSc1ccc(/C=N/NC(=O)CN2CCN(Cc3ccc(Cl)cc3)CC2)cc1	-15.1%	-6.5%
35	COc1ccc(-c2ccc(C(=O)Nc3ccc4c(c3)OCO4)c3occc23)c(C)c1	-9.8%	-7.1%
36	Cc1cc(C)c(C(=O)COC(=O)c2cccc(S(=O)(=O)N3CCOCC3)c2)cc1C	-19.3%	?
37	CCOC(COC(=O)c1ccccc1C(=O)O)c1ccccc1 (configuration not stated)	-12.1%	-7.7%
38	Cc1ccc([N+](=O)[O-])cc1S(=O)(=O)NCc1cccnc1	-3.6%	-20.3%
39	Cc1cccc(C)c1-n1nnnc1C1c2ccccc2C(=O)N1CCc1ccccc1F (configuration not stated)	15.1%	34.3%[activator]
40	COC(=O)c1sc2cccc(F)c2c1S(=O)(=O)NCc1ccccc1Cl	5.0%	7.8%
41	Cc1occc1-c1nnc(SCC(=O)NCCc2ccccc2)o1	-7.8%	-9.8%
42	O=C(c1cc2sccc2n1Cc1ccc(F)cc1)N1CCc2ccccc21	-15.5%	-20.2%
43	CN(C)c1ccc(CN(C(=O)C2COc3ccccc3O2)C2CCS(=O)(=O)C2)cc1 (configuration not stated)	1.7%	-5.5%
44	CCCC(=O)NC(C)c1nc2ccccc2n1C (configuration not stated)	-2.2%	i
45	CCOCCCNC(=O)C(c1ccccc1)N(Cc1ccc2c(c1)OCO2)C(=O)c1ccc(NC(C)=O)cc1 (configuration not stated)	-11.2%	-6.4%
46	CCN(CCn1cccn1)C(=O)c1cc(COc2ccc(F)cc2Cl)on1	-5.9%	i
47	CN(C)CCNC(=O)Nc1cccc(Cl)c1Cl	-9.7%	-4.8%
48	Cc1ccc(S(=O)(=O)N(C)C)cc1NC(=S)N(CCC#N)Cc1cccnc1	-3.5%	-0.1%
49	O=C(Nc1cc(C(F)(F)F)ccc1Cl)C1CCN(c2nnc(-n3cccc3)s2)CC1	-12.1%	/
50	CN1C(=O)C(=CN2CCN(C(=O)c3ccco3)CC2)C(=O)N(C)C1=S	0.0%	i
51	CC(C)c1ccc(Nc2c(-c3ccccn3)nc3ccccn23)cc1	?	11.2µM*
52	CCOc1ccccc1C1C(C(=O)Nc2ccc(OC)cc2)=C(C)Nc2nc(CCCO)nn21 (configuration not stated)	-4.6%	-7.3%
53	Cc1ccc(S(=O)(=O)N2C[C@]3(O)C[C@@H]4C(=O)N(c5ccccc5)C(=O)[C@@H]4C[C@]3(OC(=O)NC3CCCC3)C2)cc1	-21.5%	-12.7%
54	COc1ccc(Cl)cc1C(=O)N(Cc1nc(-c2cccc(C)c2)no1)C(C)C	?	?
55	COc1ccc(C)cc1-n1nc2ccccc2n1	-9.6%	-6.7%
56	COC(=O)c1cc(S(=O)(=O)NCc2ccccc2)cn1C	-7.1%	-8.0%
57	COc1ccc(NC(=O)c2nnn(Cc3cccc(F)c3)c2N)c(OC)c1	-3.9%	-9.3%
58	CC1CC(=O)Nc2ccccc2S1(=O)=O (configuration not stated)	-4.1%	/
59	Cc1ccc(NC(=O)CN(C)C(=O)Cc2ccc(Cl)cc2Cl)cc1	-25.1%	i
60	O=C(CCCCCN1C(=O)c2ccccc2C1=O)NC1CCCC1	-8.1%	-11.6%
61	COc1ccc(C2C(C(=O)c3sc(C)nc3C)=C(O)C(=O)N2CCN(C)C)cc1OC (configuration not stated)	0.5%	/
62	CCOC(=O)c1sc(NC(=O)c2cc(-c3ccc(F)cc3)on2)c(C(=O)OCC)c1C	7.4%	-3.5%
63	COc1cccc(/C=C/C(=O)Nc2ccc(OC)nc2)c1	-13.9%	-18.6%
64	Cc1cccc(OCC(=O)Nc2ccc(N3CCN(C(=O)c4ccco4)CC3)cc2)c1	?	?
65	Cc1ccc2[nH]c(=O)c(-c3nc4cc(C)ccn4c3NCc3ccco3)cc2c1	-25.2%	/
66	Cc1ccc(NC(=O)CN(C)C(=O)COC(=O)/C=C/c2cccs2)cc1	4.1%	-14.2%
67	CCOc1ccc(C(=O)Nc2ccc3c(c2)OCCO3)cc1Br	-10.4%	-11.2%
68	CCC(C)NCCCCOc1ccc(Br)cc1 (configuration not stated)	-22.1%	-13.1%
69	CC1CC(C)(C)NC(=S)N1CC(=O)N(C)Cc1ccccc1 (configuration not stated)	-5.9%	-12.0%
70	Cc1cc(C)c(NC(=O)Cn2c(=O)n(-c3ccc(CC(=O)NCC4CCCO4)cc3)c(=O)c3ccccc32)c(C)c1 (configuration not stated)	1.5%	-1.1%
71	O=C(c1cscn1)N1CCCC(N2CCN(c3ccc(F)cc3)CC2)C1 (configuration not stated)	-3.5%	-10.9%
72	CCn1c(SCC(=O)c2c[nH]c3ccccc23)nnc1-c1cccs1	?	/
73	Cc1cc(C)cc(NC(=O)c2sc3nc4n(c(=O)c3c2C)N=C(c2ccccc2)CS4)c1	-7.7%[7.34 µM]	-6.7%[7.34 µM]
74	CCc1cccc(NC(=O)Cn2c(=O)oc3cc(S(=O)(=O)N4CCOCC4)ccc32)c1	-15.9%	-24.3%
75	CN(C)C(=O)CSc1nnc(-c2ccncc2)n1Cc1ccco1	-3.8%	i
76	CCOc1ccc(NC(=O)Cn2c(=O)nc(-c3ccccc3)c3ccccc32)cc1	-6.3%	-15.5%
77	CCOc1ccccc1N1CCN(C(=O)CC(C)C)CC1	-15.2%	-0.7%
78	CCOC(=O)N/N=C/c1cccnc1	-15.9%	-7.3%
79	CCOc1ccc(OCC)c(NC(=O)C2CCN(S(=O)(=O)c3cccc4nonc34)CC2)c1	-16.3%	/
80	COc1ccc(CCNC(=O)CSc2ccc3nnc(CCNC(=O)c4ccccc4)n3n2)cc1OC	-12.4%	i

Next results follow:
nr	structure	Vaccinia Venus	Vaccinia mCherry
81	O=[N+]([O-])c1ccc(-n2cccn2)c(-c2nn[nH]n2)c1	-2.4%	i
82	CN(CCc1ccccn1)C(=O)c1ccc(OC2CCN(CCc3ccccc3)CC2)cc1	-19.9%	i
83	O=C(CCC(=O)N(CC(=O)NC1CCCCC1)Cc1ccc(F)cc1)Nc1nccs1	-13.5%	-6.6%
84	Cc1cc(C(F)(F)F)nn1CC(=O)N1CCCCC1C (configuration not stated)	-3.6%	/
85	COc1ccc(S(=O)(=O)N(C)CC(=O)NCc2cccnc2)cc1OC	-0.5%	-13.3%
86	O=c1[nH]c(=O)n(-c2ccc(Br)cc2)c(O)c1C=NC(CO)(CO)CO	-23.1%	i
87	COCCN1CC(=O)N(c2cccc(C)c2C)C(c2ccc(Cl)cc2)C1=O (configuration not stated)	-13.3%	i
88	CC(NCc1cccc(Cl)c1Cl)C(O)c1ccccc1 (configuration not stated)	-15.1%	-4.8%
89	Cc1ccccc1Cn1cccc1/C=C1/C(=N)N2C=CSC2=NC1=O	-24.5%	/
90	CCCN(CC1CC1)C(=S)Nc1ccc(C(C)=O)cc1	7.5%	i
91	CCOC(=O)c1c(SCCN2CCCCC2)n(-c2ccccc2)c(=S)n(-c2ccccc2)c1=O	-0.7%	-4.5%
92	C/C(=C\c1ccccc1)C(=O)NCc1ccco1	-9.5%	31.4%[activator]
93	O=C(N/N=C/c1ccccc1C(F)(F)F)c1ccc2nc[nH]c2c1	-8.2%[7.34 µM]	i[7.34 µM]
94	C=CCN=C1S/C(=C\c2ccc(Cl)cc2)C(=O)N1CC=C	-8.3%	-0.3%
95	C[C@@H]1CN([C@H](C)CO)C(=O)CCCn2nncc2CO[C@H]1CN(C)C(=O)CCC(F)(F)F	-12.4%	-4.1%
96	NS(=O)(=O)c1ccc(CCNC(=O)c2ccc3nc(Cc4ccccc4)oc3c2)cc1	9.8%	6.1%
97	Cc1ccc(-n2ncc(C(=O)NCCCN3CCCCC3)c2C2CCN(C(=O)OC(C)(C)C)CC2)cc1	-13.9%	-14.9%
98	CCOc1cc(/C=N/Nc2nc(-c3cccc(S(=O)(=O)N4CCCC4)c3)cs2)ccc1O	?	?
99	CCC(SC1=N/C(=C/c2ccccc2OC)C(=O)N1c1ccccc1)C(=O)Nc1cc(C)on1 (configuration not stated)	-27.7%	/
100	NS(=O)(=O)c1cccc(NC(=O)CSc2nnc(-c3ccccc3F)n2C2CC2)c1	-10.6%	-5.8%
101	COc1ccccc1NC(=O)C1=C(C)Nc2nnnn2C1c1ccccc1OC (configuration not stated)	15.4%	/
102	Cc1c(C(=O)NCC(C)(C)CN(C)C)cnn1-c1nccc(-c2ccccc2F)n1	-7.0%	-13.3%
103	O=S1(=O)c2c(F)cccc2OC(COc2ccccc2)CN1CCc1ccc(F)cc1 (configuration not stated)	-12.4%	-2.1%
104	CCCCCn1c(=O)c2c(nc3n2CCN3c2ccc(Br)cc2)n(C)c1=O	-13.5%	-19.2%
105	O=C(C1CCCN(c2ncccn2)C1)N1CCc2ccccc21 (configuration not stated)	-13.5%	-2.7%
106	Cc1cn(C)c(CC(=O)NCc2ccc(Cl)cc2)c1C(=O)O	-12.0%	-12.1%
107	O=C(Nc1cccc([N+](=O)[O-])c1)Nc1ccc(Cl)cn1	-1.5%	-6.8%
108	CCc1[nH]nc(C(=O)N2CCCC(Nc3ccc(C(C)C)cc3)C2)c1C (configuration not stated)	-17.2%	?
109	NS(=O)(=O)c1ccc(CNC(=O)C2(c3ccc(Cl)cc3)CC2)cc1	-8.0%	-1.8%
